MLL AF4-AF9 inh = inhibitors of human MLL-AF4/AF9 interaction. 0.47% of 350,000 active. inhibition, % at 10 µM. P42568. AID 651704. AlphaScreen, biotin-AF4 peptide binding to FLAG-AF9;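 active means every replicate reaching a set inhibition limit, whatever the replicate mean, cut at about 25% in these data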;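 further: 0% = plate neutral control median and 100% = total signal loss; the record names both 10 and 1 µM as test concentration; the first replicate is given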
Target sequence (P42568 whole entry, looked up): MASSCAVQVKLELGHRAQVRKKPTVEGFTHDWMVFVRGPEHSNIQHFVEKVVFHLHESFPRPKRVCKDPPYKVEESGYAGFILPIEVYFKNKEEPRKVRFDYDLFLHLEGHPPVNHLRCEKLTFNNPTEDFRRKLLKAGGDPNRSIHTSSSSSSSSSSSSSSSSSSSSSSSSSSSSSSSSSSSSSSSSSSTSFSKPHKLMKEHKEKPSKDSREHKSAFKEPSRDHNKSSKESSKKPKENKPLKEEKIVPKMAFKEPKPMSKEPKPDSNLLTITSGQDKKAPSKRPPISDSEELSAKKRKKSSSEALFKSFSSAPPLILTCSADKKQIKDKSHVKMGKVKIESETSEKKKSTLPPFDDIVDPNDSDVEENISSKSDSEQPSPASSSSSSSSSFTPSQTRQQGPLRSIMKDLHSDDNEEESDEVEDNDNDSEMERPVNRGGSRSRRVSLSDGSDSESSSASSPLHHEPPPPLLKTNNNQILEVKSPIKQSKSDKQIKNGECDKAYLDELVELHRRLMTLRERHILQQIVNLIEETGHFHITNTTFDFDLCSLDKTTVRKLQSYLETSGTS
* = called active by the depositor. This is a subset; the hit share may differ from the screen's.

SMILES	MLL AF4-AF9 inh
CCCNC(=O)c1cc2c(c(-c3cccc(-c4ccncc4)c3)n1)[C@@H](CCO)N(S(=O)(=O)CC)C2	0.2
COc1ccccc1CNC(=O)C[C@@H]1C[C@@H]2c3cc(NC(=O)C4CCC4)ccc3O[C@@H]2[C@@H](CO)O1	-16.0
Cc1ccccc1-c1ccc2c(c1)O[C@@H](CN(C)CC1CC1)[C@@H](C)CN([C@H](C)CO)S2(=O)=O	2.8
CCc1ccc([C@@H]2CC(=O)[C@@H]3CN(S(=O)(=O)c4ccccc4)[C@H](c4ccc(OC)cc4)C[C@@H]3N2S(=O)(=O)c2ccc(C)cc2)cc1	-0.2
COc1ccccc1-c1cn(CC[C@@H]2CC[C@@H](NC(=O)C3CCOCC3)[C@H](CO)O2)nn1	-1.3
C[C@@H]1CN([C@@H](C)CO)C(=O)c2cc(NC(=O)Nc3cccc4ccccc34)ccc2O[C@@H]1CN(C)C(=O)Nc1ccccc1	2.0
Cc1noc(C)c1NC(=O)Nc1ccc2c(c1)C(=O)N([C@H](C)CO)C[C@@H](C)[C@H](CN(C)CC1CCCCC1)OCCCC[C@@H](C)O2	3.0
Cc1noc(C)c1NC(=O)NCC[C@@H]1CC[C@@H](NC(=O)c2ccccc2)[C@@H](CO)O1	5.7
C[C@@H]1CN([C@@H](C)CO)C(=O)c2cc(C#CCc3ccccc3)cnc2O[C@@H]1CN(C)Cc1ccccc1	5.0
CNC(=O)C[C@H]1CC[C@@H]2[C@H](COc3ccc(NC(=O)C4CCCCC4)cc3C(=O)N2C)O1	-2.1
COC(=O)C1=C(C)N(C)C(=NCC2CC2)NC1c1ccccc1 (centres undefined)	-3.4
C[C@@H]1CN([C@H](C)CO)C(=O)c2cc(/C=C/c3ccccc3)cnc2O[C@H]1CN(C)S(=O)(=O)c1cn(C)cn1	4.9
CC(C)(C)[S@@](=O)N1Cc2cc(C(=O)N[C@H]3CCN(Cc4ccccc4)C3)nc(-c3cccc(-c4cccnc4)c3)c2[C@H]1CCO	0.0
COc1ccc(S(=O)(=O)Nc2ccc3c(c2)CC(=O)N([C@H](C)CO)C[C@H](C)[C@H](CN(C)C(=O)Nc2ccc(C(F)(F)F)cc2)O3)cc1	-0.3
CCC(=O)N1CCCCN2[C@H](CO)[C@@H](c3ccc(-c4cccnc4)cc3)[C@@H]2C1	-5.1
C[C@@H]1CCCCO[C@@H](CN(C)C(=O)CCCN(C)C)[C@@H](C)CN([C@@H](C)CO)C(=O)c2cc(NS(=O)(=O)c3ccc(F)cc3)ccc2O1	-1.7
COc1ccccc1CNC(=O)C[C@H]1CC[C@H]2[C@@H](COC[C@@H](O)CN2Cc2ccc3c(c2)OCO3)O1	-2.4
CC(C)C(C)(C#N)NC(=O)COC(=O)C1CCN(S(=O)(=O)c2ccc3c(c2)OCCO3)CC1 (centres undefined)	1.5
COc1ccc(S(=O)(=O)Nc2ccc3c(c2)C(=O)N([C@@H](C)CO)C[C@@H](C)[C@H](CN(C)S(C)(=O)=O)OCCCC[C@@H](C)O3)cc1	-4.7
C[C@H]1CN([C@@H](C)CO)S(=O)(=O)c2ccc(-c3cccc(F)c3)cc2O[C@@H]1CN(C)S(C)(=O)=O	2.1
O=C(NC[C@H]1[C@H](c2ccccc2)[C@@H](CO)N1CC1CC1)c1cccnc1	-4.1
O=C(C1CCOCC1)N1C[C@H]2[C@@H](c3ccccc31)[C@H](CO)N2C(=O)c1ccccc1	-2.1
C[C@@H]1CN([C@H](C)CO)C(=O)c2cc(NC(=O)Nc3ccc(F)cc3)ccc2O[C@H]1CN(C)Cc1ccncc1	-5.2
C[C@@H]1CN([C@H](C)CO)C(=O)c2cc(C#Cc3cccnc3)cnc2O[C@@H]1CN(C)C	-8.7
C[C@@H]1CN([C@@H](C)CO)C(=O)c2cc(NC(=O)NC3CCCCC3)ccc2O[C@H]1CN(C)Cc1ccc(C(=O)O)cc1	-2.0
CO[C@@H]1CN(C)C(=O)c2ccc(NS(=O)(=O)c3ccc(Oc4ccccc4)cc3)cc2OC[C@H](C)NC[C@@H]1C	1.2
Nc1[nH]c(C(=O)c2ccccc2)c(-c2ccc(Cl)cc2Cl)c1C(=O)c1ccc(Cl)cc1	-1.1
CC(=O)Nc1ccc2c(c1)C(=O)N(C)[C@@H]1CC[C@H](CC(=O)NCC3CC3)O[C@@H]1CO2	-2.8
C[C@@H]1CN([C@@H](C)CO)S(=O)(=O)c2ccc(C#CC3(O)CCCC3)cc2O[C@H]1CN(C)C(=O)Nc1cccc(F)c1	0.2
COc1ccc(NC(=O)N(C)C[C@@H]2Oc3c(NC(=O)C4CCCCC4)cccc3C(=O)N([C@@H](C)CO)C[C@H]2C)cc1	-4.5
O=C(Nc1ccc(Cl)cc1)c1csc([C@@H]2C[C@H](O)[C@@H](CO)O2)n1	0.5
C[C@@H]1CN([C@@H](C)CO)C(=O)Cc2cc(NC(=O)Nc3ccc(F)cc3)ccc2O[C@@H]1CN(C)Cc1ccccc1	4.8
CNC[C@@H]1Oc2ccc(NC(=O)C3CC3)cc2CC(=O)N([C@H](C)CO)C[C@H]1C	-0.2
C[C@H]1CN([C@@H](C)CO)C(=O)Cc2cc(NC(=O)Cc3ccccc3)ccc2O[C@@H]1CN(C)Cc1ccncc1	-1.9
CCC(CO)Nc1ccn2nc(-c3ccccc3)cc2n1 (centres undefined)	0.0
C[C@H]1CN([C@@H](C)CO)S(=O)(=O)c2ccc(-c3cncnc3)cc2O[C@H]1CN(C)Cc1ccc(Oc2ccccc2)cc1	5.9
Cc1noc(C)c1NC(=O)Nc1cccc2c1O[C@H](CN(C)C(=O)NC1CCCCC1)[C@H](C)CN([C@H](C)CO)C2=O	-3.0
C/C=C/c1ccc([C@H]2[C@@H](CO)N[C@@H]2CNC(=O)c2ccccc2F)cc1	3.5
COc1ccc(S(=O)(=O)Nc2ccc3c(c2)C(=O)N([C@@H](C)CO)C[C@@H](C)[C@H](CN(C)C(=O)Nc2ccc4c(c2)OCO4)OCCCC[C@@H](C)O3)cc1	-2.8
COCC(=O)Nc1ccc2c(c1)OC[C@H](C)N(C(=O)Cc1ccccn1)C[C@@H](C)[C@H](OC)CN(C)C2=O	-1.0
O=C1C=CC(c2c[nH]c3ccccc23)CC1 (centres undefined)	2.0
Cc1noc(C)c1S(=O)(=O)N(C)C[C@@H]1Oc2ccc(NS(=O)(=O)c3cn(C)cn3)cc2C(=O)N([C@@H](C)CO)C[C@@H]1C	-0.2
O=C(C[C@H]1CC[C@H]2[C@@H](COC[C@@H](O)CN2CCC(F)(F)F)O1)NCc1ccc2c(c1)OCO2	0.6
COC(=O)C[C@@H]1CC[C@@H]2[C@H](COC[C@H](O)CN2C(=O)Nc2cccc(F)c2)O1	0.3
CC(=O)N1CC2(C1)[C@H](c1ccc(-c3cccc(F)c3)cc1)[C@H](CO)N2CC1CCCC1	0.2
C[C@@H]1CN([C@@H](C)CO)C(=O)c2cc(NS(=O)(=O)c3ccc(F)cc3)ccc2O[C@H]1CN(C)Cc1ccc2c(c1)OCO2	-0.2
CCN(C[C@H]1[C@H](c2ccccc2)[C@H](CO)N1C(C)=O)C(=O)c1ccccn1	0.4
COc1ccc(CNC(=O)/C=C/[C@H]2O[C@@H](n3ccc(=O)[nH]c3=O)[C@H](O)[C@@H]2O)cc1	0.0
COc1ccc(-n2nnnc2CNC(=O)c2c(-c3ccccc3Cl)noc2C)cc1	-1.8
CC(C)CC#Cc1cnc2c(c1)C(=O)N([C@H](C)CO)C[C@H](C)[C@@H](CN(C)Cc1ccc(F)cc1)O2	2.7
C[C@H](CO)N1C[C@H](C)[C@H](CN(C)C(=O)Nc2ccc(C(F)(F)F)cc2)Oc2ccc(NS(C)(=O)=O)cc2CC1=O	-3.7
CCCC#Cc1ccc([C@@H]2[C@H]3CN(C(=O)c4cccnc4)CC(=O)N3[C@H]2CO)cc1	-0.4
O=S1(=O)CC(N2CCC(c3ccccc3)CC2)CN1Cc1ccccc1 (centres undefined)	-0.6
CN(C)C(=O)c1cccc(-c2ccc3c(c2)[C@@H]2[C@@H](CCN2S(=O)(=O)c2ccccc2)[C@H](CO)N3)c1	-5.1
CCCN(C)C[C@@H]1Oc2ncc(-c3cccnc3)cc2C(=O)N([C@H](C)CO)C[C@H]1C	-0.5
CCNC(=O)C1(C)CCN(Cc2ccc(-c3ccccc3)cc2)C1 (centres undefined)	1.1
Cc1ccc(S(=O)(=O)N2C[C@H]3C(=O)C[C@@H](c4cccc(C)c4)N(S(=O)(=O)c4ccc(C)cc4)[C@H]3C[C@H]2c2ccccc2)cc1	-2.3
Cc1ccc(S(=O)(=O)Nc2ccc3c(c2)C(=O)N([C@@H](C)CO)C[C@@H](C)[C@@H](CN(C)S(=O)(=O)c2cn(C)cn2)O3)cc1	1.3
CO[C@@H]1CN(C)C(=O)c2cc(NS(C)(=O)=O)ccc2OC[C@H](C)N(C(=O)C2CCCC2)C[C@H]1C	-0.9
C[C@H](CO)N1C[C@H](C)[C@@H](CN(C)Cc2ccc(C(F)(F)F)cc2)Oc2ccc(NC(=O)Nc3ccc4c(c3)OCO4)cc2C1=O	5.3

5 entries out of the list above, arranged by the value under MLL AF4-AF9 inh, rising.
SMILES	MLL AF4-AF9 inh
C[C@@H]1CN([C@@H](C)CO)C(=O)c2cc(NC(=O)NC3CCCCC3)ccc2O[C@H]1CN(C)Cc1ccc(C(=O)O)cc1	-2.0
COc1ccccc1-c1cn(CC[C@@H]2CC[C@@H](NC(=O)C3CCOCC3)[C@H](CO)O2)nn1	-1.3
CO[C@@H]1CN(C)C(=O)c2cc(NS(C)(=O)=O)ccc2OC[C@H](C)N(C(=O)C2CCCC2)C[C@H]1C	-0.9
CC(C)(C)[S@@](=O)N1Cc2cc(C(=O)N[C@H]3CCN(Cc4ccccc4)C3)nc(-c3cccc(-c4cccnc4)c3)c2[C@H]1CCO	0.0
C[C@@H]1CN([C@@H](C)CO)S(=O)(=O)c2ccc(C#CC3(O)CCCC3)cc2O[C@H]1CN(C)C(=O)Nc1cccc(F)c1	0.2

Later entries
SMILES	MLL AF4-AF9 inh
CN(C)c1ccc(O)c2c1CC1CC3[C@@H](N(C)C)C(=O)C(C(N)=O)C(=O)[C@]3(O)C(=O)C1C2=O (some centres undefined)	0.7
CC(C)CC#Cc1cnc2c(c1)C(=O)N([C@H](C)CO)C[C@H](C)[C@H](CN(C)C(=O)C1CCCCC1)O2	1.1
CC(C)NC(=O)N(C)C[C@H]1OCCCC[C@@H](C)Oc2ccc(NS(=O)(=O)c3ccc(F)cc3)cc2C(=O)N([C@H](C)CO)C[C@@H]1C	-4.1
C[C@H](CO)N1C[C@H](C)[C@@H](CN(C)C(=O)c2ccncc2)OCCCC[C@H](C)Oc2ccc(NS(=O)(=O)c3ccc(Cl)cc3)cc2C1=O	-6.2
C[C@H]1CN([C@@H](C)CO)C(=O)c2cc(NS(=O)(=O)c3cccs3)ccc2O[C@@H]1CN(C)Cc1ccc(C(=O)Nc2ccccc2N)cc1	0.5
Cc1cc(C(=O)Nc2ccc3c(c2)C(=O)N(C)[C@@H]2CC[C@@H](CC(=O)N[C@@H](C)c4ccccc4)O[C@@H]2CO3)no1	0.2
CCC(=O)Nc1ccc2c(c1)C(=O)N(C)[C@@H]1CC[C@H](CC(=O)NCCOC)O[C@H]1CO2	-0.4
COc1ccc2c3c(n(C)c2c1)[C@H](CO)N(C(=O)C1CCC1)CC31CCN(C(=O)CN(C)C)CC1	-0.7
CCOC(=O)[C@]12CCC=C1N(CCC1=CCCCC1)C(=O)[C@H](CC(=O)N1CCOCC1)C2	-4.6
Cc1noc(C)c1NC(=O)N[C@H]1C=C[C@@H](CC(=O)NCCCN(C)C)O[C@@H]1CO	-1.2
C[C@H]1CN([C@@H](C)CO)C(=O)c2cc(NC(=O)Cn3cnnn3)ccc2O[C@H]1CN(C)Cc1ccccc1	-1.9
CCCC(=O)Nc1ccc2c(c1)C(=O)N(C)C[C@@H](OC)[C@@H](C)CN(C(=O)c1cnccn1)[C@H](C)CO2	1.0
COCC(=O)N1C[C@H]2[C@@H](c3ccccc31)[C@H](CO)N2Cc1ccccc1	-0.4
CN(C)C(=O)C[C@@H]1CC[C@H]2[C@H](COc3ccc(NC(=O)C4CCC4)cc3C(=O)N2C)O1	-6.7
O=C(C[C@@H]1CC[C@H]2[C@@H](COC[C@@H](O)CN2C(=O)c2ccccn2)O1)NC1CCC1	-1.1

Random excerpt: 3 entries already listed, in no set order.
SMILES	MLL AF4-AF9 inh
CN(C)c1ccc(O)c2c1CC1CC3[C@@H](N(C)C)C(=O)C(C(N)=O)C(=O)[C@]3(O)C(=O)C1C2=O (some centres undefined)	0.7
CC(C)CC#Cc1cnc2c(c1)C(=O)N([C@H](C)CO)C[C@H](C)[C@H](CN(C)C(=O)C1CCCCC1)O2	1.1
CCCC(=O)Nc1ccc2c(c1)C(=O)N(C)C[C@@H](OC)[C@@H](C)CN(C(=O)c1cnccn1)[C@H](C)CO2	1.0

The results go on:
SMILES	MLL AF4-AF9 inh
CCC(=O)N1[C@H](CO)[C@H]2c3ccccc3N(C(=O)c3ccccc3F)C[C@H]21	-0.9
CCc1nc2c(OCc3ccc4c(c3)OCO4)cccn2c1N(C=O)Cc1ccccc1	2.3
C[C@@H]1CCCCO[C@@H](CN(C)C(=O)Cc2ccccc2)[C@H](C)CN([C@@H](C)CO)C(=O)c2cc(NS(=O)(=O)c3ccc(Cl)cc3)ccc2O1	-8.5
CO[C@H]1CN(C)C(=O)c2cc(NC(=O)c3cc(C)on3)ccc2OC[C@@H](C)NC[C@H]1C	-3.0
Cc1ccc(S(=O)(=O)N(C)C[C@H]2OCCCC[C@H](C)Oc3ccc(NC(=O)Nc4ccc(C(F)(F)F)cc4)cc3C(=O)N([C@H](C)CO)C[C@H]2C)cc1	-0.9
CO[C@@H]1CN(C)C(=O)c2ccc(NC(C)=O)cc2OC[C@@H](C)N(CC2CC2)C[C@@H]1C	3.8
COc1ccc(S(=O)(=O)Nc2cccc3c2O[C@H](CN(C)S(=O)(=O)c2c(C)noc2C)[C@H](C)CN([C@@H](C)CO)C3=O)cc1	-3.5
C[C@H](CO)N1C[C@H](C)[C@H](CN(C)Cc2ccc(C(F)(F)F)cc2)OCc2ccccc2-c2ccccc2C1=O	-4.3

Compound activity as filed in PubChem.
